UUG fidelity – modulators of start codon recognition fidelity in yeast; S. cerevisiae UUG-firefly luciferase reporter, luminescence/redox ratio; activity score, % at 18.7 µM; 350,000 compounds, 0.13% hits; AID 602363;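 active = replicate mean at a twofold rise or more, about +100% in these data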;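 also: firefly luciferase made from a UUG start codon reports start codon fidelity; reporter light over untreated wells divided by growth signal over untreated wells; some hits fall short of that in this replicate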
Rce1 inh – blocks yeast Ras-converting enzyme. yeast membranes, quenched prenylated peptide cleavage fluorescence. Q03530. calls only. AID 2563. 290,000 compounds, 0.27% hits;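 active = fall in fluorescence gain of 50% or more versus controls, with final raw signal at or below 3038400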;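 also: plate controls were neutral control wells for no effect and wells lacking membranes for full effect; tested at 10 µM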
eIF4H inh – inhibitors of RNA binding by human eIF4H | inhibition, % at 35 µM | AID 2012 | 290,000 compounds, 0.94% hits | eIF4H fluorescence polarization binding assay | Q15056;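 active = 50% or more with normal probe brightness, or confirmed in later tests; about a fifth of its hits are not listed in these tables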;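 also: calls also rest on retests at 20 µM and on dose response follow-up; 0% = protein and probe with vehicle and 100% = probe without protein; strong numbers were not always called active; many hits fall short of the cut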
PABP polyA inh – blocks human PABP binding to poly(A) RNA; P11940; fluorescence polarization; inhibition, % at 35 µM; AID 2014; 290,000 compounds, 1% hits;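 active = 50% or more with normal probe brightness, or confirmed in later tests; about a fifth of its hits are not listed in these tables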;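 also: calls also rest on retests at 20 µM and on dose response follow-up; controls were probe without protein and protein plus probe with vehicle; some compounds called inactive have numbers as strong as hits; many hits fall short of the cut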
Target sequence (P11940 whole entry, looked up): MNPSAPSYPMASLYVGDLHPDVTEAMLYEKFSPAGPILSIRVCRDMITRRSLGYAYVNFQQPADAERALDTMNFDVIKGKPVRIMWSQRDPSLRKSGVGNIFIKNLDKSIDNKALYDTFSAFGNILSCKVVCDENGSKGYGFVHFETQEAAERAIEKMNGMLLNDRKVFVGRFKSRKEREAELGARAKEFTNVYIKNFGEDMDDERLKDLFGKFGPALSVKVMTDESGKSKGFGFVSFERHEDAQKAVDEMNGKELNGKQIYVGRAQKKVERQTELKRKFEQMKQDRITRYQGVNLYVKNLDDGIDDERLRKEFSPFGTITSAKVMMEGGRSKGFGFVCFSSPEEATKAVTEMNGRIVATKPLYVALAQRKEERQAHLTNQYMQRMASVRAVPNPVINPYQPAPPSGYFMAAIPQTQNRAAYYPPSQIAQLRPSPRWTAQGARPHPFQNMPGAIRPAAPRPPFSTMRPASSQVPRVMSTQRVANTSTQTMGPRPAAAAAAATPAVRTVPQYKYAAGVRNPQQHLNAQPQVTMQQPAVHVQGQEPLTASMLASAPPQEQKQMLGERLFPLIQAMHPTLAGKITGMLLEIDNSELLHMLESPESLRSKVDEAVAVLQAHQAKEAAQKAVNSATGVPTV
CSC inhib – cancer stem cell inhibition; cancer stem cell-like cells viability, luminescence; inhibition, % at 7.5 µM; 300,000 compounds, 1.1% hits;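 active = mean at 75% or more and at least half the replicates too; tested in HMLE shEcad cells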;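 also: 0% = median of negative and 100% = median of positive control wells; the first replicate is given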
HIV Env fusion – blocks HIV Env-driven cell-cell fusion | HeLa-JRFL Env/CEM21 cell fusion, luciferase | inhibition, % at 12.3 µM | 360,000 compounds, 1.1% hits;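 active = mean replicate inhibition score of at least 50 and every replicate individually at or above 50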;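 also: 0% = plate neutral controls and 100% = maraviroc near 300 nM; one replicate is shown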
MT1-MMP act inh – blocks activation of human MT1-MMP | P50281 | HT1080 RFP-PRO-GFP cells, GFP/RFP ratio fluorescence, overnight; percent of plate control window, DMSO zero | GFP/RFP ratio change, % at 20 µM | 360,000 compounds, 0.061% hits;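 active = GFP/RFP ratio change of at least 30% with cell ATP level not reduced by more than half and red fluorescence within 50% of control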; also: strong numbers were not always called active
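system = RFP-PRO-GFP reporter HT1080 cells | dosing = 20 µM single dose, 1% DMSO | timing = overnight cell settling, then overnight compound exposure, 37 °C, 5% CO2 | read-out basis = GFP/RFP fluorescence ratio | controls = DMSO and RFP-L50D-GFP cell wells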
MT1-MMP act inh RFP – second read-out of MT1-MMP act inh, no call of its own (marks repeat the call); RFP signal change, %; measured here: RFP expression control read;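 0 = vehicle wells; hits needed this value within 50% of zero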
Starred values were filed as active, the others as inactive; i = inactive; / = not tested or not shown. An excerpt; rates above refer to the full screens.

| compound | UUG fidelity | Rce1 inh | eIF4H inh | PABP polyA inh | CSC inhib | HIV Env fusion | MT1-MMP act inh | MT1-MMP act inh RFP |
| --- | --- | --- | --- | --- | --- | --- | --- | --- |
| COc1cccc(C(C)(O)c2nc(-c3ccoc3)cs2)c1 (stereo not drawn) | -13 | / | / | / | / | 4 | -5 | -1 |
| CC(C)N1C(=O)C2C(C(=O)NCc3ccccc3)C3C=CC2(O3)C1C(=O)NC(C)(C)C (stereo not drawn) | -9 | i | -3 | 0 | -18 | -25 | -6 | 5 |
| CCOC(=O)c1c(SC)[nH]c2c(Cl)cccc2c1=O | -17 | i | -1 | 4 | -2 | 13 | 4 | 2 |
| COc1cc(SC)ccc1C(=O)NC1CCCc2ccccc21 (stereo not drawn) | 7 | i | 2 | 4 | 45 | 23 | -8 | 0 |
| CC(=O)Nc1ccc(S(=O)(=O)N2CCCC(C(=O)N3CCN(c4ccccc4)CC3)C2)cc1 (stereo not drawn) | 1 | i | 4 | -10 | 0 | -5 | 0 | -15 |
| O=[N+]([O-])c1cccc2ccc(/C=C/c3cccc(Br)c3)nc12 | / | i | -6 | -4 | 62 | -18 | 7 | 10 |
| CCCCc1nc(SCC(=O)Nc2ccc(S(N)(=O)=O)cc2)n[nH]1 | -9 | i | -12 | 6 | 0 | / | 3 | 4 |
| C/C(=N/N1CCN(c2ccccn2)CC1)c1cccc([N+](=O)[O-])c1 | 3 | i | -2 | -17 | -16 | 6 | 8 | 5 |
| Cn1c(CC(=O)Nc2ccc(F)cc2)nnc1SCC(=O)NC1CCCCC1 | -20 | i | 4 | -4 | -1 | 10 | -4 | -2 |
| CCOCCCN(C(=O)Cn1nnc2ccccc21)C(C(=O)NCc1ccco1)c1ccncc1 (stereo not drawn) | -1 | i | 3 | 0 | / | / | 3 | 5 |
| CC(=O)NS(=O)(=O)c1ccc(NC(=O)CN2C(=O)C3C4C=CC(C4)C3C2=O)cc1 (stereo not drawn) | / | i | -2 | -9 | -19 | -34 | -1 | 2 |
| Cn1c(=O)c2c(Nc3ccc(F)cc3)cc(=O)n(-c3ccccc3)c2n(C)c1=O | -8 | i | -4 | 2 | -1 | -5 | 12 | -1 |
| COc1ccc(S(=O)(=O)NC(C)(C)C)cc1-c1nnc2c3ccccc3c(C)nn12 | -7 | i | 3 | -4 | 6 | -68 | -1 | -1 |
| CCN1C(=O)N/C(=C/c2ccc(C)o2)C1=O | / | i | 46 | -7 | 10 | -21 | 3 | 5 |
| COc1ccc(/C=N/n2nnnc2N)c(OC)c1 | -19 | i | 8 | -8 | -7 | -7 | 2 | 2 |
| COCCN(Cc1cc2cc(C)c(C)cc2nc1Cl)C(=O)N1CCOCC1 | / | i | 4 | -2 | -10 | 19 | -4 | -3 |
| COc1ccc(C2CC(c3cccs3)=NN2C(=O)CSc2nc(=O)n3cc(C)ccc3n2)cc1 (stereo not drawn) | -9 | i | / | / | 19 | -3 | -6 | -9 |
| O=C(Nc1cccc(-c2nc3ncccc3o2)c1)c1ccco1 | -12 | i | 0 | -9 | 19 | -23 | -12 | -3 |
| COc1ccccc1N1C(=O)C2C3CC(c4ccccc4)C(C3)C2C1=O (stereo not drawn) | 0 | i | 3 | -11 | -13 | / | -1 | 0 |
| Cc1ccc2nc(SCC(=O)N3CCCCCC3)nc(=O)n2c1 | -6 | i | / | / | 9 | -11 | -1 | -2 |
| CCN1C(=O)CC2(C[N+]3(C)CCC2CC3)C1=O (stereo not drawn) | -12 | i | -5 | 5 | -5 | / | -1 | 4 |
| CC(C)C(NS(=O)(=O)c1cccc(C(F)(F)F)c1)C(=O)O (stereo not drawn) | -16 | i | 0 | 7 | -13 | 0 | 8 | 5 |
| C/C(Cl)=C/Cn1c(NCCCn2ccnc2)nc2c1c(=O)[nH]c(=O)n2C | -22 | i | -8 | 5 | 5 | 6 | -1 | -7 |
| COc1ccc(N(CC(=O)NCCSC2CCCCC2)S(C)(=O)=O)c(OC)c1 | -17 | i | -11 | -4 | -9 | / | -1 | -2 |
| COC(=O)c1sc(C(F)(F)F)c(-c2ccccc2)c1S(=O)(=O)N1CCOCC1 | -10 | / | / | / | / | 10 | -1 | -5 |
| Cc1c(C(=O)NCCN2C(=O)S/C(=C\c3cccs3)C2=O)cccc1[N+](=O)[O-] | -11 | i | -3 | 8 | 10 | / | -1 | -2 |
| O=C(C1CCN(S(=O)(=O)c2cccc3nsnc23)CC1)N1CCCc2ccccc21 | -13 | i | 5 | -5 | -3 | -13 | -10 | -4 |
| O=[N+]([O-])c1ccc(N2CCN(CCO)CC2)c2ncccc12 | -5 | i | 17 | 38 | -5 | -15 | 5 | 8 |
| COc1cccc(NS(=O)(=O)c2ccc(S(=O)(=O)N3CCOCC3)cc2)c1 | -9 | i | 4 | -6 | -4 | / | 5 | -5 |
| CN(C)c1ccc(C(C[N+](=O)[O-])c2c(N)n(C)c(=O)n(C)c2=O)c(F)c1C#N (stereo not drawn) | -16 | i | 4 | 13 | / | 11 | -6 | -3 |
| O=C(CSc1nccc(=O)[nH]1)NC1CCCC1 | -7 | i | -4 | 4 | -13 | 14 | 0 | 2 |
| CC(C)CN(CCNC(=O)CN1C(=O)COc2ccc(S(=O)(=O)N3CCOCC3)cc21)CC(C)C | -12 | i | 0 | 2 | -4 | 0 | -1 | 1 |
| Cc1cccc2c1-c1sc(C(=O)Nc3ccccc3N3CCN(C)CC3)cc1CO2 | 6 | i | 0 | 1 | 102* | 3 | -3 | -3 |
| Cc1nnc2sc(-c3ccc(NC(=O)CSc4ccc(Cl)cc4)cc3)nn12 | -13 | / | 3 | -3 | 47 | -134 | 2 | -5 |
| Cc1ccc(NC2CCCN(C(=O)c3ccccc3N3CCOCC3)C2)cc1C (stereo not drawn) | -21 | i | -5 | 6 | -3 | 4 | -1 | 3 |
| c1ccc(Cn2cc(-c3cccnc3)cn2)cc1 | -39 | / | / | / | 7 | 11 | -6 | -4 |
| COc1ccc(CNC(=O)c2ccc(NC(=O)C3CCCO3)cc2)cc1 (stereo not drawn) | -11 | i | -5 | -6 | 11 | -28 | 1 | 0 |
| COC1CCN(Cc2c(C(=O)N3CCc4ccccc4C3)nc3ccc(Cl)cn23)CC1 | -11 | i | 13 | 7 | -15 | -7 | -2 | 0 |
| CN1CCN(c2ccc(CNC(=O)c3ccc(-c4ccc(F)c(F)c4)c4ccoc34)cc2)CC1 | -8 | / | / | / | / | 34 | 7 | 7 |
| C/C(=N\NC(=O)c1cc(-c2ccccn2)nc2ccccc12)c1cccc([N+](=O)[O-])c1 | -11 | i | -4 | -15 | 0 | -9 | -2 | 0 |
| CC(=O)c1cc(CN2CCN(C3CCN(C(C)C)CC3)C(CCO)C2)cs1 (stereo not drawn) | / | i | -5 | -4 | -29 | 3 | 0 | 4 |
| CC(C)N1CCC(N2CCN(Cc3cc(F)ccc3-n3cccn3)CC2CCO)CC1 (stereo not drawn) | / | i | -6 | 4 | -1 | 3 | -6 | -3 |
| Cc1cc(=O)n2nc(N3CCCC(C(=O)N4CCOCC4)C3)sc2n1 (stereo not drawn) | -4 | / | 0 | 3 | -8 | / | -8 | -5 |
| CCOC(=O)CC1=NC(=O)CS1 | / | i | 5 | 14 | 21 | / | 1 | 3 |
| COc1cc(/C=N/Nc2nc(N3CCCC3)nc(N3CCCC3)n2)ccc1O | -4 | i | -12 | -5 | -4 | -27 | 4 | -2 |
| CCOc1ccc2ccccc2c1/C=N/NC(=O)CNC(=O)c1ccccc1F | -3 | i | -10 | 2 | 3 | 6 | 0 | 2 |
| Cc1ccc(NC(=O)CSc2nnc(COc3ccc(C#N)cc3)n2-c2ccccc2)cc1C | -13 | i | -5 | -4 | -12 | 25 | -1 | -9 |
| Cc1ccc(CN2CCN(Cc3ccc(OC(C)C)cc3)CC2CCO)o1 (stereo not drawn) | -8 | i | 2 | -6 | -5 | -3 | -1 | 3 |
| CC(C)Cn1c(N)c(C(=O)CSc2ncn[nH]2)c(=O)n(C)c1=O | -17 | / | / | / | / | 4 | -1 | -4 |
| Cc1ccc(C(C)C)c(OCCNC(=S)Nc2cccc3ccccc23)c1 | -23 | i | 3 | 4 | 31 | 20 | -13 | -11 |

Whole records, quoted from the list. Screens in order: UUG fidelity, Rce1 inh, eIF4H inh, PABP polyA inh, CSC inhib, HIV Env fusion, MT1-MMP act inh, MT1-MMP act inh RFP
`Cc1ccc(NC(=O)CSc2nnc(COc3ccc(C#N)cc3)n2-c2ccccc2)cc1C` across the screens: -13, i, -5, -4, -12, 25, -1, -9
`Cc1nnc2sc(-c3ccc(NC(=O)CSc4ccc(Cl)cc4)cc3)nn12` across the screens: -13, /, 3, -3, 47, -134, 2, -5
`Cc1cc(=O)n2nc(N3CCCC(C(=O)N4CCOCC4)C3)sc2n1` (stereo not drawn) across the screens: -4, /, 0, 3, -8, /, -8, -5

Remaining list, next part:
| compound | UUG fidelity | Rce1 inh | eIF4H inh | PABP polyA inh | CSC inhib | HIV Env fusion | MT1-MMP act inh | MT1-MMP act inh RFP |
| --- | --- | --- | --- | --- | --- | --- | --- | --- |
| Cc1ccc(N(C(=O)c2csnn2)C(C(=O)NCc2ccccc2)c2cccnc2)cc1 (stereo not drawn) | -19 | i | -9 | -2 | / | 5 | -3 | -1 |
| CC[C@]12c3[nH]c4cc(CCC(=O)N(C)C)ccc4c3CCN1C(=O)[C@@H](CC(=O)NCc1cccc(C(F)(F)F)c1)C[C@@H]2C(=O)N1CCN(C(=O)c2ccco2)CC1 | 15 | / | / | / | / | -17 | 10 | 11 |
| COc1ccc(-c2[nH]ncc2CN(C)CCN2CCOCC2)cc1F | / | / | -7 | 5 | -2 | -13 | 4 | 6 |
| COc1ccc(CN2CCC(n3nccc3NC(=O)C3CC3)CC2)cc1O | -5 | i | 11 | 7 | 4 | -23 | 0 | 3 |
| C=CCN(c1ccc(C(=O)Nc2cccc([N+](=O)[O-])c2)cc1)S(C)(=O)=O | / | i | -4 | 1 | -11 | 11 | -1 | 0 |
| COC(=O)c1ccccc1NC(=O)c1cc(C2CC2)on1 | -16 | i | -2 | -2 | 0 | -6 | -1 | 2 |
| COc1ccc(N(CC(=O)NCc2ccc(F)cc2)C(=O)CCC(=O)Nc2ccccn2)cc1 | -12 | i | 9 | 2 | -10 | -83 | 3 | 6 |
| O=C(O)C1CC(=O)N(CCc2ccccc2)C1 (stereo not drawn) | -28 | i | -6 | 9 | 2 | -61 | 3 | 3 |
| Cc1ccc(C2c3[nH]c4ccccc4c3C[C@H]3C(=O)N(c4ccccc4C(=O)NCCCN4CCOCC4)C(=O)N23)cc1 (stereo partly drawn) | 3 | / | -4 | -6 | 0 | / | 10 | 6 |
| N#Cc1ccc(C(=O)N2CCCC(c3cc(C(=O)NCc4cccnc4)no3)C2)cc1 (stereo not drawn) | -17 | / | / | / | / | 0 | 0 | 3 |
| COc1ccc(-c2noc(CCC(=O)NCCCN3CCC(Cc4ccccc4)CC3)n2)cc1 | -16 | i | -1 | 14 | -8 | 15 | -4 | -12 |
| Cc1ccc2c(c1)nnn2C1CCN(CC(=O)NCCc2nc3ccccc3[nH]2)CC1 | -14 | i | -8 | 0 | / | 8 | -2 | -8 |
| CN(Cc1cccs1)C(=O)Cc1csc(-c2ccccc2)n1 | 0 | i | 3 | 14 | 14 | -19 | -2 | -1 |
| COc1ccc(-c2csc(NC(=S)NC(=O)c3ccc(S(=O)(=O)N(C)C)cc3)n2)cc1OC | -14 | i | -21 | 2 | -1 | -42 | 1 | 3 |
| CC(CCc1ccccc1)NC(=O)CN1C(=O)NC2(CCCCC2)C1=O (stereo not drawn) | / | i | -1 | 0 | 4 | 5 | -2 | -4 |
| CCn1ccnc1[C@@H]1C[C@H]2CN(Cc3ccccc3OC)C(=O)[C@]23CCCN13 | / | i | 20 | 7 | -5 | 1 | 1 | 1 |
| CC1CCN(c2cc(N3CCOCC3)c([N+](=O)[O-])cc2F)CC1 | 5 | i | -1 | 7 | 54 | / | 5 | -6 |
| O=C(COc1ccccc1[N+](=O)[O-])Nc1ccccc1N1CCCC1 | / | i | 4 | 5 | / | 16 | -3 | 3 |

Screening data deposited in PubChem BioAssay by several laboratories.
